From PubChem
Tg IFNy HTS: T. gondii growth inhibition with IFN-gamma, primary screen, cell-based; AID 1259416, 2018; activity change, negative = inhibition, %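 (about 20 µM by stock and volumes)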; Toxoplasma gondii growth in IFN-gamma-treated host cells; stronger effect = lower value; reference of the scale not given here; 69,000 compounds, 3.8% hits;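 active = below -70%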;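 also: host cells are HeLa cells infected with Toxoplasma gondii; parasite growth read as luciferase light; one replicate is shown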
Starred values were filed as active, the others as inactive; i = inactive; & = joins results of further samples. Not all compounds are listed; count on the stated rates, not on these rows.

Compound	Tg IFNy HTS
CC1(C(=O)N2CCC(c3n[nH]c(=O)n3-c3ccccc3)CC2)CCCCO1 (stereo not given)	33
Cc1nn(C(=O)Nc2cccc(Cl)c2)c(C)c1Cc1csc2ccc(Cl)cc12	-85*
CCOCC(=O)N1CCCCC12CC(=O)N(c1cncnc1)C2 (stereo not given)	-22
O=C(c1ccc(-c2ncn[nH]2)cc1)N1CCCC(Nc2ccc(F)cc2)C1 (stereo not given)	5
COCC(=O)N1CC2(CCN(C(=O)c3cccnc3)CC2)c2c([nH]c3cc(OC)ccc23)[C@H]1CO	-24
O=C1CN(c2ccccc2)C(=O)N1c1ccccc1	-2
Cc1ccc(NC(=O)C2CC(=O)n3cnnc3N2)cc1 (stereo not given)	2
CCCC(=O)Nc1ccc2c(c1)OC[C@H](C)N(C(=O)c1cccnc1)C[C@@H](C)[C@H](OC)CN(C)C2=O	38
Cc1nc(CCN)cc(NCC(O)c2ccccc2)n1 (stereo not given)	4
CCOc1ccc(-c2nc(Cn3c(=O)c4c(C)cc(C)nc4n(Cc4ccco4)c3=O)c(C)o2)cc1	-1
NC(=O)C1Cn2ccnc2C2(CCN(C(=O)c3ccncc3)CC2)O1 (stereo not given)	-4
OC(COc1ccccc1Cl)Cn1c2ccccc2c2ccccc21 (stereo not given)	-46
O=S(=O)(c1ccccc1)N1CCCC12CCN(Cc1cccc(F)c1)CC2	-2
O=C1NCC2(CCCN(C(=O)c3cnn4ccccc34)CC2)O1 (stereo not given)	11
C=CCn1c(=O)c(C(=O)NCc2ccccc2Cl)c(O)c2ccccc21	41
CC(C)CC(=O)N1CCC[C@]2(C(=O)N3CCOCC3)CN(Cc3cnn(C)c3)C[C@H]2C1	2
CC(CC1=CCN(CC(=O)N(C)C)CC1)NC(=O)c1ccco1 (stereo not given)	11
CN1CCN(C(=O)c2nn(C)c3c2CCN(S(C)(=O)=O)C3)CC1	-32
CNC(=O)c1cc2c(nc1NCC1CC1)CCN(c1ncccn1)CC2	7
CN(Cc1nc(C2CC2)no1)C(=O)c1cccc(CC2CCNCC2)c1	6

Next section, overlapping the part above by seven compounds.
Compound	Tg IFNy HTS
O=C1NCC2(CCCN(C(=O)c3cnn4ccccc34)CC2)O1 (stereo not given)	11
C=CCn1c(=O)c(C(=O)NCc2ccccc2Cl)c(O)c2ccccc21	41
CC(C)CC(=O)N1CCC[C@]2(C(=O)N3CCOCC3)CN(Cc3cnn(C)c3)C[C@H]2C1	2
CC(CC1=CCN(CC(=O)N(C)C)CC1)NC(=O)c1ccco1 (stereo not given)	11
CN1CCN(C(=O)c2nn(C)c3c2CCN(S(C)(=O)=O)C3)CC1	-32
CNC(=O)c1cc2c(nc1NCC1CC1)CCN(c1ncccn1)CC2	7
CN(Cc1nc(C2CC2)no1)C(=O)c1cccc(CC2CCNCC2)c1	6
CCCNC(=O)C[C@H]1CC[C@H]2[C@@H](COC[C@@H](O)CN2C(=O)Nc2ccc(Cl)c(Cl)c2)O1	-49
CN(CCOc1ccc(CC(Nc2ccccc2C(=O)c2ccccc2)C(=O)O)cc1)c1ccccn1 (stereo not given)	7
COc1ccc(-n2ccnc2-c2cccc(OC)c2OC)cn1	7
C=CCn1nc(C(=O)N2CCOCC2)c2c1CCC(NCc1nc(-c3ccccc3)cs1)C2 (stereo not given)	-5
COc1ccc(OC)c(CNC(=O)c2nc(Nc3ccc(C)cc3)c3ccccc3n2)c1	-41
CC(C)NC(=O)c1scc(S(C)(=O)=O)c1Cl	170
CCN1c2ccc(F)cc2C(=O)NC12CCN(C(=O)c1ccc(C(F)(F)F)cc1)CC2	-4
C/C=C/c1ccc([C@H]2[C@@H](CNC(=O)NC(C)C)N(C(=O)C3CC3)[C@H]2CO)cc1	10
COc1ccc(S(=O)(=O)Nc2ccc3c(c2)CC(=O)N([C@@H](C)CO)C[C@H](C)[C@@H](CN(C)Cc2ccc(C(=O)Nc4ccccc4N)cc2)O3)cc1	-1
CN1C(=O)CCC2C1CCN2C(=O)c1ccc2[nH]ccc2c1 (stereo not given)	-97*
C=CCN1C(=O)CC[C@H]2[C@@H]1CCN2C(=O)N(C)C	106
Cn1ccn2ncc(C(=O)NCC3OCCc4ccccc43)c12 (stereo not given)	-21
COc1cccc(C(=O)NCCc2csc(-c3ccc(C(F)(F)F)cc3)n2)c1	i
COc1ccc(CC(=O)N2CCC(N(C)C)CC2C(=O)O)cc1 (stereo not given)	-5
CCN1c2ccc(C)cc2C(=O)NC12CCN(C(=O)c1ccccc1)CC2	2
O=C(O)c1ccccc1Nc1cccc(OCc2ccc3ccccc3n2)c1	5&-21
COc1ccc(N(Cc2nc(-c3ccccc3)oc2C)S(=O)(=O)c2ccccc2)cc1	-45
COc1ccc(CNC(=O)c2cncc(N(C)S(=O)(=O)c3ccc(C)cc3)c2)cc1	-27
COCC(=O)N1CC2(C1)[C@@H](c1ccc(-c3cccc(F)c3)cc1)[C@@H](CO)N2C(=O)C1CC1	-47
N#C[C@@H]1[C@H](c2ccccc2)[C@@H](CO)N1C(=O)c1ccccc1F	2
NCC[C@@H]1CC[C@@H](NS(=O)(=O)c2ccc(Cl)cc2)[C@H](CO)O1	-7
Cc1ccccc1N1C(N)=NC(N)=NC1(C)C	-26
COc1ccc(C(=O)OCC(=O)c2ccc(Cl)cc2)cc1	85
CCc1cnc(C)nc1N1CCC(O)(Cn2ccnc2)CC1	-3
CCC(=O)Nc1ccc(-c2ccc(OC)nc2)c(C)n1	85
O=C(Nc1cccnc1)c1c(O)c2ccccc2n(-c2ccccc2)c1=O	44
c1ccc(Cc2nc(CCOc3ccccc3)n[nH]2)cc1	164
CC(C)NC(=O)N1[C@H](CNC(=O)CN(C)C)[C@@H](c2ccccc2)[C@@H]1CO	-23
CCOc1ccccc1-c1noc(-c2c(O)c3ccccc3[nH]c2=O)n1	53
CCn1c2cc(C)oc2c2cnn(Cn3nnc4ccccc43)c(=O)c21	-38
Cc1nc(-c2cccc(F)c2)sc1CCNC(=O)C(=O)Nc1ccc(C(N)=O)cc1	23
O=C(CCNC(=O)c1ccc(F)cc1)NC1(Cc2ccccc2)CC1	4
Cn1nc(CN2CCCC2=O)c2c1CNC2	-7
CCS(=O)(=O)N1[C@H](C#N)[C@H](c2ccc(C#CCC3CCCC3)cc2)[C@@H]1CO	-3
O=C(Nc1ccccc1F)N1CCCCN2[C@H](CO)[C@H](c3ccc(/C=C/c4ccccc4)cc3)[C@@H]2C1	-57
Cc1cc(C(=O)Nc2ccc(-c3nc(Cn4cccn4)c(C)o3)cc2)no1	-93*
O=S(=O)(c1ccc(F)cc1)N1CCC2(CC(n3ccnc3)CO2)C1 (stereo not given)	-1
Cc1noc(C)c1CN(C)Cc1ccc(S(C)(=O)=O)cc1	9
CC(NC(=O)CCc1nc2ccccc2c(=O)[nH]1)c1ccccc1 (stereo not given)	16
COc1ccc(-c2ccc(S(N)(=O)=O)cc2F)c2ccc(C)nc12	-1
CCS(=O)(=O)N1CC[C@H]2Nc3ccc(F)cc3[C@H]2C1	-5
c1coc(-c2cnc(NCc3ccc4c(c3)OCO4)nc2-c2ccco2)c1	2
O=C(c1cscn1)N1CCc2ncnc(-c3ccccc3)c2CC1	12
COc1ccc(-c2nc(CN(c3ccc(OC)cc3)S(=O)(=O)c3ccc(C)cc3)c(C)o2)cc1	4
O=C(c1cnc2c(O)cccn2c1=O)N1CCOC(C(F)(F)F)C1 (stereo not given)	-24
CC1CCN(C(=O)c2cc(Cl)ccc2NC(=O)c2ccco2)CC1	-13
CCn1cc(C(=O)NCCN2CCOCC2)c(=O)c2ccc(C)nc21	8
O=S(=O)(c1ccc(S(=O)(=O)N2CCCN(Cc3ccccc3)C2)cc1)N1CCCC1	-44
Cc1nn(C)c(C)c1CN(C(=O)C1CC(=O)N(CC(C)C)C1)C1CC1 (stereo not given)	-15
O=C1C(Cc2ccccc2)N=C2c3ccccc3N=C(SCc3cccc(F)c3)N12 (stereo not given)	0
Cc1nc(C2CC2)ncc1C(=O)N1CCC(Cc2cccc(C(=O)O)c2)CC1	-6
COCCCNC(=O)Cn1ncc2c(N3CCCCC3)ncnc21	86
C[C@@H]1CN([C@H](C)CO)C(=O)CCCn2nncc2CO[C@@H]1CN(C)S(=O)(=O)c1ccc2c(c1)OCCCO2	-64
CCCCC1CCCN1C(=O)c1ccc(O)c(OC)c1 (stereo not given)	7
CN(C)C(=O)c1ccc2c(c1)N(C)C(CC(=O)NCCCc1cccnc1)CO2 (stereo not given)	1
O=C(N[C@H]1C[C@H]2C(=O)NCC(=O)N2C1)c1cncc(Cl)c1	6
CC1CCN(C(=O)Cn2c(=O)ccc3cc(S(=O)(=O)N4CCC(C)CC4)ccc32)CC1	12
CCN1CCCC1CNC(=O)c1cc2cc(S(=O)(=O)N(CC)CC)ccc2n1C (stereo not given)	-16
Cn1c(=O)c(-c2nc(-c3cccs3)no2)c(O)c2cc(F)ccc21	81
CN1C(=O)c2cc(NS(=O)(=O)c3ccccc3F)ccc2OC[C@H]2O[C@@H](CC(=O)NC3Cc4ccccc4C3)CC[C@@H]21	-1

(cont.)
Compound	Tg IFNy HTS
COc1ccc(CC(=O)N2C[C@H]3C[C@@H](Cc4nc(C)no4)O[C@@H]3C2)cc1	0
Cc1cc(N)n(CC(=O)NCc2cnn(-c3cccc(F)c3)c2)n1	6
CCC(CC)NCCCN1CCCC(O)C1 (stereo not given)	-5
CCC(CC)n1nc(C)cc1NC(=O)CC(C)n1cccn1 (stereo not given)	-1
CCSCCN1CCC(=O)N(Cc2ccccc2)C(CC)C1 (stereo not given)	0
Cc1cc(C(=O)N2CCC(c3nc(N4CCC(C)CC4)ncc3S(C)(=O)=O)CC2)on1	-13
CCOc1ccccc1NC(=O)N1CCC2(CC1)Nc1cc(C)ccc1-n1cccc12	355
COCC1CN(C(=O)COc2ccc(C)cc2)Cc2ncn(C)c21 (stereo not given)	11
CCC(=O)Oc1ccc(C(=O)Nc2ccc([N+](=O)[O-])cc2)cc1	110
CC(=O)N1[C@@H](CO)[C@@H](c2ccccc2)[C@@H]1CN(CC(C)C)C(=O)c1ccccn1	-25
Nc1ccccc1NC(=S)Nc1c(Cl)cccc1Cl	57
CCN(Cc1ccc2c(C)cc(=O)oc2c1)CC1CCOCC1	-46
Clc1ccc(-n2cnnn2)cc1Cl	-15
CN(C)CC1CN(Cc2cnn(C)c2)Cc2nccn2C1 (stereo not given)	-27
Cc1ccc(CN2C[C@H]3COC[C@@]3(CNC(=O)c3cccnc3)C2)s1	-10
CCNC1(C(N)=O)CCN(c2ncnc3c2nc(-c2ccccc2Cl)n3-c2ccc(Cl)cc2)CC1	18
O=C(CN1CCN(CC2CCCO2)CC1)NCCc1ccc(Cl)cc1 (stereo not given)	8
CN(Cc1ccn[nH]1)C(=O)c1coc(COc2cccc(F)c2F)n1	7
COc1ccccc1NC(=O)C(=O)NCCc1csc(-c2cccc(F)c2)n1	21
COc1ccc(NC(=O)N(C)C[C@H]2Oc3c(NC(=O)CCCCCC(=O)Nc4ccccc4N)cccc3C(=O)N([C@H](C)CO)C[C@H]2C)cc1	-2
c1cc2c(cc1CN1CCC(Cc3noc(C4CC4)n3)CC1)OCCO2	-40
CC(C)c1ccc(S(=O)(=O)N2CCC3(CC2)NCCN=C3NCc2ccc(F)cc2)cc1	-36
CSCCCn1cnc(-c2ccccc2)c1-c1cnc(C(C)C)nc1	-12
CC(=O)N1[C@H](CO)[C@H]2c3ccccc3N(S(=O)(=O)c3ccccc3C)C[C@H]21	1
CNC(=O)CN1CCCC12CCN(C(=O)c1cnccn1)CC2	0
Cc1oc(C2CCN(C(=O)C3CCCO3)CC2)nc1C(=O)N1CCSCC1 (stereo not given)	10
Cc1ccc(CN(C)Cc2ccc(C#CC(C)(C)O)s2)o1	14
C[C@@H]1CCCCO[C@H](CN(C)S(=O)(=O)c2ccc(Cl)cc2)[C@@H](C)CN([C@H](C)CO)C(=O)c2cc(NC(=O)Nc3ccc(C(F)(F)F)cc3)ccc2O1	45
Cc1cccc(CN(Cc2ccccc2)C(=O)c2cnc(N)nc2C)n1	-4
COc1ccc(CCNc2nc(-c3nnc(-c4ccc(F)cc4)o3)nc3ccccc23)cc1OC	497
CC[C@@H](Cn1nc(-c2ccc(F)c(F)c2)ccc1=O)NC(=O)C(C)(C)C	-59
CS(=O)(=O)N1[C@H](C#N)[C@@H](c2ccc(-c3ccccc3F)cc2)[C@H]1CO	-9
COc1cccc(-n2c(=O)c(C(=O)NC3CCCCC3)c(O)c3cccnc32)c1	-63
COCCNC(=O)[C@@H]1[C@@H](CO)[C@@H]2Cn3c(cccc3=O)[C@H]1N2Cc1cccc(Cl)c1	5
O=C(CCn1cncn1)N1CCC(n2cc(-c3ccccn3)nn2)CC1	12
COc1cccc(SCC(=O)N2C[C@@H]3[C@H](C2)[C@H]2CC[C@@H]3O2)c1	181
O=c1[nH]c2ccc(NCC#Cc3ccccc3)cc2[nH]1	-83*
CC(C)CC(=O)N1CCc2c([nH]c3ccccc23)C12C(=O)N(C)c1ccccc12 (stereo not given)	445
Cc1nc(CC(=O)N2CCOC(C(=O)NC3CCCC3)C2)cs1 (stereo not given)	-3
COc1cc(OC)cc(C(=O)Nc2ccc(-c3nc(-c4ccccc4)co3)cc2)c1	-10
Cc1ccc(NC(=O)Cn2c(=O)cc(C(=O)N3CCCCC3)c3ccccc32)c(Cl)c1	4
